Vaccinia inh: blocks a specific stage of Vaccinia orthopoxvirus infection; Vaccinia-infected cells, mCherry/Venus stage reporter fluorescence; stronger effect = lower value; some inactives read as strong as hits; activity change (mCherry), % (no concentration beside the values); actives 0.01% (n = 89,000);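 active means mCherry past -33% and 40 or more points under the early reporter, replicates agreeing; inconclusive means past -33% without that gap or agreement; tested in A549 cells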;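 further: scaled between vehicle wells and reference inhibitor wells; 23 nL library stock went into each well; one replicate is shown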
Vaccinia inh Venus: also measured in Vaccinia inh; calls as there; activity change (Venus), %; measured here: Venus reporter, other viral stage;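 negative = less Venus signal; first of two replicates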
* hit, by the source's call; ? = inconclusive; nt = no result given. The list is partial; rates above refer to the full screens.

Each structure is followed by: Vaccinia inh, Vaccinia inh Venus
C[C@@H]1CCCCO[C@@H](CN(C)C(=O)CCCN(C)C)[C@@H](C)CN([C@H](C)CO)C(=O)c2cc(NC(=O)Cc3ccccc3)ccc2O1
 : 26, 9
C[C@H](CO)N1C[C@H](C)[C@H](CN(C)C(=O)Nc2ccc(F)cc2)Oc2ccc(NC(=O)C3CC3)cc2C1=O
 : 15, 13
CN(C)C(=O)c1cccc(-c2ccccc2[C@@H]2[C@@H](C#N)N(C(=O)C3CCCCC3)[C@@H]2CO)c1
 : -9, -12
CCCC(=O)N1CC2(C1)CN(C(=O)Cc1ccccn1)[C@@H](CO)c1[nH]c3cc(OC)ccc3c12
 : 34, 5
CO[C@H]1CN(C)C(=O)c2ccc(NC(=O)C3CCCCC3)cc2OC[C@@H](C)N(C)C[C@@H]1C
 : -9, -8
CNC[C@H]1OCCCC[C@@H](C)Oc2ccc(NC(=O)c3ccncc3)cc2C(=O)N([C@H](C)CO)C[C@H]1C
 : 17, 12
C[C@@H]1CN([C@@H](C)CO)C(=O)c2cc(NC(=O)Cc3ccccc3)ccc2O[C@@H](C)CCCCO[C@@H]1CN(C)Cc1ccc(C(F)(F)F)cc1
 : -11, -2
C[C@H](CO)N1C[C@H](C)[C@@H](CN(C)S(=O)(=O)c2cccs2)Oc2ccc(NC(=O)CCN3CCOCC3)cc2CC1=O
 : -3, -2
Cc1ccc(-c2ccc3c(c2)O[C@H](CN(C)Cc2ccncc2)[C@@H](C)CN([C@@H](C)CO)S3(=O)=O)cc1
 : ?, nt
CC=Cc1ccc2n(c1=O)C[C@@H]1[C@@H](CO)[C@H](C(=O)NCC)[C@H]2N1S(=O)(=O)c1cn(C)cn1 (mixture of isomers)
 : 11, 7
CC(C)C#Cc1ccc([C@@H]2[C@@H](CO)N(C(=O)C3CC3)[C@H]2C#N)cc1
 : -4, 0
CO[C@@H]1CN(C)C(=O)c2ccc(NS(=O)(=O)CC(F)(F)F)cc2OC[C@@H](C)N(CC2CCCCC2)C[C@H]1C
 : -4, -1
C[C@@H]1CN([C@H](C)CO)C(=O)Cc2cc(NC(=O)NC3CCCCC3)ccc2O[C@H]1CN(C)C(=O)Nc1ccccc1
 : 14, 4
C[C@@H]1CN([C@@H](C)CO)C(=O)c2cc(NS(=O)(=O)c3cccs3)ccc2O[C@H]1CN(C)C(=O)Nc1ccc(F)cc1
 : 14, 12
COCC(=O)N1CC(=O)N2[C@H](C1)[C@@H](c1ccc(-c3ccccc3C)cc1)[C@@H]2CO
 : 32, 7
CO[C@H]1CC[C@@H]2CCOc3ccc(C#N)cc3C(=O)N(C)C[C@@H](OC)[C@H](C)C(=O)N(C)C[C@H]1O2
 : 7, 5
COc1ccc(COC[C@]23Oc4ccccc4[C@H]([C@H]2COC(=O)c2ccc([N+](=O)[O-])cc2)N(C(=O)CC(C)=O)C(=O)N3C)cc1
 : 8, 4
CCCNC(=O)C[C@@H]1C[C@@H]2c3cc(N(C)C)ccc3O[C@@H]2[C@H](CO)O1
 : 9, 12
C[C@@H]1CCCCO[C@@H](CN(C)C(=O)c2ccncc2)[C@@H](C)CN([C@@H](C)CO)C(=O)c2cc(NS(=O)(=O)c3cccs3)ccc2O1
 : 10, -1
CCCC#Cc1ccc([C@H]2[C@H]3CN(C(=O)c4ccccn4)CC(=O)N3[C@H]2CO)cc1
 : 28, 9
CO[C@@H]1CN(C)C(=O)c2ccc(NS(=O)(=O)c3cn(C)cn3)cc2OC[C@@H](C)N(CC2CC2)C[C@@H]1C
 : 3, 3
CCCC(=O)Nc1ccc2c(c1)C(=O)N(C)[C@H]1CC[C@H](CC(=O)Nc3ccccc3)O[C@@H]1CO2
 : 5, 4
C[C@H](NC(=O)C[C@@H]1CC[C@@H]2[C@H](COC[C@@H](O)CN2C(=O)Nc2cc(Cl)cc(Cl)c2)O1)c1ccccc1
 : ?, nt
CC(C)NC(=O)N(C)C[C@@H]1Oc2cc(C#Cc3ccc(F)cc3)ccc2S(=O)(=O)N([C@@H](C)CO)C[C@H]1C
 : ?, nt
C[C@@H]1CN([C@@H](C)CO)C(=O)c2cc(NC(=O)Nc3ccccc3)ccc2O[C@@H](C)CCCCO[C@H]1CN(C)C(=O)CCCN(C)C
 : 10, 2
CN(C)C(=O)C[C@H]1CC[C@@H](NC(=O)c2ccc(F)cc2)[C@@H](CO)O1
 : 9, 0
CO[C@H]1CC[C@@H]2CCN(C)C(=O)[C@H](C)CN(C)C(=O)c3cc(C#N)ccc3OC[C@H]1O2
 : 14, 10
C[C@@H]1CN([C@@H](C)CO)C(=O)c2cccc(NS(=O)(=O)c3cn(C)cn3)c2O[C@H]1CN(C)Cc1ccc(Cl)c(Cl)c1
 : 4, 12
COc1ccc(-c2cn(CC[C@@H]3CC[C@H](NC(=O)Cc4ccccn4)[C@H](CO)O3)nn2)cc1
 : 4, 0
O=C(Nc1cccc(F)c1)N1CC(=O)N2[C@H](CO)[C@@H](c3ccc(-c4ccccc4F)cc3)[C@H]2C1
 : ?, nt

The final 2 compounds of the part above are carried over, then new ones follow.
Each structure is followed by: Vaccinia inh, Vaccinia inh Venus
COc1ccc(-c2cn(CC[C@@H]3CC[C@H](NC(=O)Cc4ccccn4)[C@H](CO)O3)nn2)cc1
 : 4, 0
O=C(Nc1cccc(F)c1)N1CC(=O)N2[C@H](CO)[C@@H](c3ccc(-c4ccccc4F)cc3)[C@H]2C1
 : ?, nt
C[C@H](NC(=O)[C@H]1N[C@H]2c3ccc(-c4cccnc4)c(=O)n3C[C@H]2[C@@H]1CO)c1ccccc1
 : 22, 5
COc1ccc(NC(=O)N(C)C[C@@H]2OCCCC[C@H](C)Oc3ccc(NS(=O)(=O)c4ccccc4)cc3C(=O)N([C@H](C)CO)C[C@@H]2C)cc1
 : -6, -14
C[C@@H]1CN([C@@H](C)CO)C(=O)c2cc(NC(=O)Nc3ccc(F)cc3)ccc2O[C@H]1CN(C)Cc1ccc(-c2ccccc2)cc1
 : ?, nt
C[C@H](CO)N1C[C@H](C)[C@@H](CN(C)C(=O)Nc2ccnc(N3CCOCC3)c2)OCc2cn(nn2)CCCC1=O
 : 10, 5
O=C(NCC[C@@H]1CC[C@H](NC(=O)c2cccnc2)[C@@H](CO)O1)Nc1ccc(F)cc1
 : 15, 11
CNC[C@@H]1Oc2ncc(Br)cc2C(=O)N([C@@H](C)CO)C[C@@H]1C
 : 1, 8
CCS(=O)(=O)N[C@@H]1CC[C@@H](CC(=O)NCc2ccccn2)O[C@@H]1CO
 : 23, 10
CCCNC(=O)N1C[C@H](O)COC[C@H]2O[C@@H](CC(=O)N[C@@H]3CCN(Cc4ccccc4)C3)CC[C@@H]21
 : 10, 12
C[C@@H]1CN([C@H](C)CO)S(=O)(=O)c2ccc(-c3cncnc3)cc2O[C@H]1CN(C)C(=O)c1cccc(F)c1
 : 22, 19
CCCNC(=O)C[C@@H]1CC[C@H]2[C@H](COc3ccc(NC(=O)C4CCOCC4)cc3C(=O)N2C)O1
 : 7, 6
CC(C)NC(=O)Nc1ccc2c(c1)CC(=O)N([C@H](C)CO)C[C@H](C)[C@H](CN(C)CC1CCCCC1)O2
 : -3, 1
CNC(=O)C[C@@H]1CC[C@H]2[C@H](COc3ccc(NC(=O)Nc4ccc(F)cc4)cc3C(=O)N2C)O1
 : -3, 3
OC[C@H]1[C@H](c2ccc(C#Cc3ccccc3F)cc2)[C@@H]2CN(CC3CCOCC3)CCCCN12
 : ?, nt
C[C@H](NC(=O)[C@@H]1[C@@H](CO)[C@@H]2Cn3c(cccc3=O)[C@@H]2N1S(C)(=O)=O)c1ccccc1
 : 20, 12
C[C@H]1CN([C@@H](C)CO)C(=O)c2cc(C#CCc3ccccc3)cnc2O[C@H]1CN(C)Cc1ccccn1
 : -8, -7
C[C@@H]1CCCCO[C@@H](CN(C)Cc2ccncc2)[C@@H](C)CN([C@H](C)CO)C(=O)c2cc(NC(=O)Nc3ccccc3)ccc2O1
 : 31, 22
CCNC(=O)C[C@H]1CC[C@@H]2[C@H](COc3ccc(NC(=O)NC(C)C)cc3C(=O)N2C)O1
 : 12, 3
C[C@H]1CN([C@@H](C)CO)S(=O)(=O)c2ccc(-c3ccccc3F)cc2O[C@@H]1CN(C)Cc1cccnc1
 : ?, nt
CCCNC(=O)N(C)C[C@@H]1Oc2cc(C#CC(C)(C)O)ccc2S(=O)(=O)N([C@H](C)CO)C[C@@H]1C
 : 14, 14
C[C@H]1CN([C@@H](C)CO)C(=O)c2cc(C#CC3CCCC3)cnc2O[C@@H]1CN(C)C(=O)C1CCC1
 : 13, -5
C[C@@H]1CN([C@@H](C)CO)C(=O)c2cc(NC(=O)Nc3ccccc3)ccc2O[C@@H](C)CCCCO[C@@H]1CN(C)C(=O)CCC(F)(F)F
 : 10, 14
C[C@H]1CN([C@@H](C)CO)C(=O)Cc2cc(NC(=O)Nc3ccc(F)cc3)ccc2O[C@@H]1CN(C)CC1CCCCC1
 : -30, -6
Fc1cccc(CN2[C@@H]3CNC[C@H]2C3c2ccc(-c3cccnc3)cc2)c1 (some centres undefined)
 : 18, 4
O=C(c1ccncc1)N1CC[C@@H]2[C@H]1c1cc(-c3ccc(F)cc3)ccc1N[C@@H]2CO
 : -11, 8
Cc1noc(C)c1S(=O)(=O)Nc1ccc2c(c1)CC(=O)N([C@@H](C)CO)C[C@@H](C)[C@H](CN(C)C(=O)Nc1ccc(C(F)(F)F)cc1)O2
 : -22, -12
CC(=O)N(C)C[C@H]1Oc2cc(C#CC(C)C)ccc2S(=O)(=O)N([C@H](C)CO)C[C@H]1C
 : 14, -5
O=C(NC[C@@H]1[C@@H](c2ccccc2)[C@H](CO)N1Cc1cccnc1)c1ccccn1
 : 16, 13
COc1ccc([Si](C)(C)[C@@H]2[C@@H](CC(=O)N3Cc4ccccc4C[C@H]3CO)O[C@]3(C(=O)N(Cc4ccc(I)cc4)c4ccccc43)[C@H]2C)cc1
 : -31, -24
COc1ccc(S(=O)(=O)Nc2cccc3c2O[C@@H](CN(C)S(=O)(=O)c2cn(C)cn2)[C@H](C)CN([C@@H](C)CO)C3=O)cc1
 : 14, 7
Cc1noc(C)c1NC(=O)N(C)C[C@@H]1Oc2c(NC(=O)Nc3cccc4ccccc34)cccc2C(=O)N([C@@H](C)CO)C[C@H]1C
 : 1, 1

Next section
molecule	Vaccinia inh	Vaccinia inh Venus
N#C[C@@H]1[C@@H](c2ccc(C3=CCCCC3)cc2)[C@H](CO)N1S(=O)(=O)c1ccccc1	?	nt
Cc1ccc(S(=O)(=O)N(C)C[C@@H]2Oc3ccc(NC(=O)Nc4ccccc4)cc3C(=O)N([C@@H](C)CO)C[C@H]2C)cc1	-9	-8
C[C@@H]1CN([C@@H](C)CO)C(=O)Cc2cc(NC(=O)C3CC3)ccc2O[C@H]1CN(C)C(=O)Nc1cccc2ccccc12	7	14
C[C@H](CO)N1C[C@H](C)[C@H](CN(C)Cc2ccccc2)OCCCC[C@H](C)Oc2ccc(NC(=O)Nc3ccccc3)cc2C1=O	?	nt
C[C@H]1CN([C@@H](C)CO)C(=O)c2cc(NC(=O)CCC(F)(F)F)ccc2O[C@@H]1CN(C)S(=O)(=O)c1cccs1	18	4
Cc1ccc(-c2ccc([C@H]3[C@H](CO)N4C(=O)CN(C(=O)c5ccc(F)cc5)C[C@@H]34)cc2)cc1	-6	-18
COc1cccc(C#Cc2ccc([C@H]3[C@H](CO)N4C(=O)CN(C(=O)c5ccncc5)C[C@@H]34)cc2)c1	4	-1
C[C@@H]1CN([C@@H](C)CO)C(=O)Cc2cc(N(C)C)ccc2O[C@H]1CN(C)Cc1ccc(C(=O)O)cc1	0	-3
C[C@@H]1CN([C@@H](C)CO)C(=O)c2cc(NS(C)(=O)=O)ccc2O[C@@H]1CN(C)Cc1ccc(Cl)c(Cl)c1	-28	-25
C[C@H](CO)N1C[C@H](C)[C@@H](CN(C)Cc2ccc(Cl)c(Cl)c2)OCCCC[C@H](C)Oc2ccc(NS(=O)(=O)c3cccs3)cc2C1=O	?	nt
CO[C@@H]1CN(C)C(=O)c2ccc(NC(=O)c3cnccn3)cc2OC[C@@H](C)NC[C@@H]1C	-3	10
O=C(c1cccc(F)c1)N1CC(=O)N2[C@H](CO)[C@H](c3ccc(-c4ccccc4F)cc3)[C@@H]2C1	-16	-20

Record cards, as listed above. Order of screens: Vaccinia inh	Vaccinia inh Venus
Profile of CCNC(=O)C[C@H]1CC[C@@H]2[C@H](COc3ccc(NC(=O)NC(C)C)cc3C(=O)N2C)O1 = 12	3
Profile of CO[C@H]1CN(C)C(=O)c2ccc(NC(=O)C3CCCCC3)cc2OC[C@@H](C)N(C)C[C@@H]1C = -9	-8
Profile of Cc1ccc(S(=O)(=O)N(C)C[C@@H]2Oc3ccc(NC(=O)Nc4ccccc4)cc3C(=O)N([C@@H](C)CO)C[C@H]2C)cc1 = -9	-8

(more compounds)
molecule	Vaccinia inh	Vaccinia inh Venus
C[C@H](CO)N1C[C@H](C)[C@H](CN(C)C(=O)Nc2ccc(F)cc2)Oc2ccc(NS(C)(=O)=O)cc2C1=O	6	5
Cc1ccc(S(=O)(=O)Nc2ccc3c(c2)C(=O)N([C@H](C)CO)C[C@@H](C)[C@@H](CN(C)C(=O)CCCN(C)C)OCCCC[C@H](C)O3)cc1	14	-8
CNC[C@H]1Oc2cc(C#CC(C)C)ccc2S(=O)(=O)N([C@@H](C)CO)C[C@@H]1C	-31	-22
COc1ccc(C#Cc2cnc3c(c2)C(=O)N([C@H](C)CO)C[C@H](C)[C@H](CN(C)C(=O)NC2CCCCC2)O3)cc1OC	-17	-14
COCc1cn(CC[C@@H]2CC[C@@H](NC(=O)Nc3ccccc3)[C@@H](CO)O2)nn1	13	14
C[C@H]1CN([C@@H](C)CO)C(=O)Cc2cc(NC(=O)c3ccncc3)ccc2O[C@H]1CN(C)Cc1ccc(Cl)c(Cl)c1	-24	-26
COc1cccc(-c2ccc3c(c2)[C@@H]2[C@@H](CCN2C(=O)Cc2ccccc2)[C@H](CO)N3)c1	-32	-20
